Sfp PPTase inh = inhibitors of Bacillus subtilis Sfp phosphopantetheinyl transferase. Q9F4F7. Biochemical Sfp PPTase activity, qHTS. Potency, µM, for the others: max response, negative = inhibition, actives largely listed as inhibitors. 3.5% of 310,000 active; active = well fitted inhibition curve with a large enough effect; inconclusive = small, poorly fitted or top-dose-only effect, or another doubt; inactive = no such curve, though single readings can be large or run the other way;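 note: the enzyme is Sfp with the accession as filed and its product quenches rhodamine fluorescence; potency is the fitted concentration of half-maximal effect; 0% = enzyme reaction without inhibitor and -100% = no enzyme wells; top concentration of the series not given in the record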
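Buffer: 50 mM Hepes-Na pH 7.6, 10 mM MgCl2, 0.01% Nonidet P-40, 0.01% BSA. Enzyme 15 nM, pre-exposed to compound 15 min; substrates then added and fluorescence change tracked over 30 min.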
ClpP mod = qHTS Assay for Activators of ClpP; ATP-dependent Clp protease proteolytic subunit (Bacillus subtilis (strain 168)), P80244; 1.9% of 340,000 active; purified B. subtilis ClpP, FRET peptide cleavage, 20 min; Potency, µM (doses to about 57.5 µM), for the others: at the highest dose activity change, negative = active; active = well fitted falling curve with a large enough effect; inconclusive = small, poorly fitted or top-dose-only effect; inactive = no such curve, though single readings can be large or run the other way; note: potency is the fitted concentration of half-maximal effect; the source files actives as falling curves though it sought activators and does not explain the sign; nearly all actives have a fitted effect of over 65% in size; many hits overshoot -100%
Target sequence (P80244 whole entry, looked up): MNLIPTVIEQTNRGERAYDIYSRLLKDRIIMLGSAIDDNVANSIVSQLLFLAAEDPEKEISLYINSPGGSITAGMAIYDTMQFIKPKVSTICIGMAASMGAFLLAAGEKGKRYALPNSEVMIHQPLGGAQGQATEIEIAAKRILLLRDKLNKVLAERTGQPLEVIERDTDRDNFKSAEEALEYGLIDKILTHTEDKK
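Purified B. subtilis ClpP, 10 microg/mL final in Tris/HCl pH8 with KCl, BSA, glycerol and Tween-20, cleaved an Abz/nitrotyrosine-quenched decapeptide. Fluorescence (ex 320, em 430) was read at 0 and 20 min at room temperature. Delta was normalized to 5.8 microM ADEP and DMSO/no-enzyme controls.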
gsp antag = antagonists of gsp mutant (McCune-Albright syndrome) | gsp-mutant cells, cAMP HTRF, 30 min; control for the full effect not named in the record | Potency, µM (doses to about 76.9 µM), for inactives: at the highest dose activity change, negative = inhibition, usual class: inhibitors | 0.4% of 340,000 active | AID 624288; active = falling curve of any shape with a large fitted effect; inconclusive = falling curve, mostly with a smaller effect; inactive = flat or rising curve; cell line not stated here;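 note: intracellular cAMP measured with PDE inhibitor Ro 20-1724 present during compound exposure; potency is the fitted concentration of half-maximal effect; % is set by controls: 0 for no effect and ±100 for the full control effect; nearly all actives have a fitted effect of over 65% in size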
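Cells in G418 medium, seeded 16-24 h, 37C; buffer exchange to DPBS + 1 mM CaCl2, 0.5 mM MgCl2, 0.05% BSA; cpds in DMSO + […] (300 uM stock), 30 min 37C; HTRF cAMP detection.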
TRPML1 inh = blocks the human TRPML1 channel. TRPML1-inducible cells, Ca2+ dye fluorescence, FDSS; active compounds read low; inhibition of EC80 agonist-evoked calcium signal. activity change, negative = inhibition, % (no concentration beside the values). 0.02% of 390,000 active; in the data active means activity change below about -50%; inconclusive means about -30% to -50%; inactive means above about -30%;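 note: stimulus is agonist 54-4 at its EC80 concentration; % is set by controls: 0 for no effect and ±100 for the full control effect; compound concentration not given in the record; the text of the record puts the active cut at -80%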
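Calcium fluorescence in TRPML1-DL cells induced overnight with Tet: a 110 s read after compound pin addition, then a 110 s antagonist read after challenge with 54-4 at 4 uM final (EC80).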
gsp agonist = activates gsp, the McCune-Albright syndrome mutation | AID 624287 | 0.13% of 340,000 active | Potency, µM (top dose mostly 76.9 µM), without a hit: top-dose activation (cAMP increase), actives largely listed as activators | gsp mutant cells, cAMP HTRF, 30 min; control for the full effect not named in the record; active = well fitted activation curve with a large enough effect; inconclusive = small, poorly fitted or top-dose-only effect, or another doubt; inactive = no such curve, though single readings can be large or run the other way; cell line not stated here;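 note: phosphodiesterase inhibitor Ro 20-1724 added with compounds to block cAMP breakdown; potency is the fitted concentration of half-maximal effect; nearly all actives have a fitted effect of over 60% in size; about a fifth of the inactives were tested at one dose only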
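Cells in DMEM/10% FBS with G418 were pretreated with compounds in DMSO plus […] (300 uM stock) for 30 min at 37C. cAMP was measured by HTRF (cAMP-d2 plus anti-cAMP antibody-K) after 30 min at room temperature.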
Menin MLL FP FL = inhibitors of human menin-MLL interaction, wild-type MLL peptide | Fluorescence polarization, fluorescein-MLL peptide displacement from menin | FP activity change, % at 61.4 µM | 290,000 tested, under 10 active | AID 1766; inconclusive = falling polarisation curve, or a change in total fluorescence; inactive = total fluorescence flat and polarisation flat or rising; no compound was filed as active; the % refers to the polarisation; negative = inhibition;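 note: % of control where 0% means no effect; inhibitors lower the polarisation; unlabelled MLL peptide was the positive control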
TRPV1 PAM = human TRPV1 potentiation | TRPV1-expressing cells, Fluo-8 calcium influx, capsaicin EC20 potentiation; host cell line not named in the record; control for the full effect not named in the record | potentiation, % at 8.33 µM | 0.02% of 320,000 active; active means potentiation above 80%; inconclusive means 30% to 80%; inactive means below 30%; note: 0% is about no effect
Target sequence (Q8NER1 whole entry, looked up): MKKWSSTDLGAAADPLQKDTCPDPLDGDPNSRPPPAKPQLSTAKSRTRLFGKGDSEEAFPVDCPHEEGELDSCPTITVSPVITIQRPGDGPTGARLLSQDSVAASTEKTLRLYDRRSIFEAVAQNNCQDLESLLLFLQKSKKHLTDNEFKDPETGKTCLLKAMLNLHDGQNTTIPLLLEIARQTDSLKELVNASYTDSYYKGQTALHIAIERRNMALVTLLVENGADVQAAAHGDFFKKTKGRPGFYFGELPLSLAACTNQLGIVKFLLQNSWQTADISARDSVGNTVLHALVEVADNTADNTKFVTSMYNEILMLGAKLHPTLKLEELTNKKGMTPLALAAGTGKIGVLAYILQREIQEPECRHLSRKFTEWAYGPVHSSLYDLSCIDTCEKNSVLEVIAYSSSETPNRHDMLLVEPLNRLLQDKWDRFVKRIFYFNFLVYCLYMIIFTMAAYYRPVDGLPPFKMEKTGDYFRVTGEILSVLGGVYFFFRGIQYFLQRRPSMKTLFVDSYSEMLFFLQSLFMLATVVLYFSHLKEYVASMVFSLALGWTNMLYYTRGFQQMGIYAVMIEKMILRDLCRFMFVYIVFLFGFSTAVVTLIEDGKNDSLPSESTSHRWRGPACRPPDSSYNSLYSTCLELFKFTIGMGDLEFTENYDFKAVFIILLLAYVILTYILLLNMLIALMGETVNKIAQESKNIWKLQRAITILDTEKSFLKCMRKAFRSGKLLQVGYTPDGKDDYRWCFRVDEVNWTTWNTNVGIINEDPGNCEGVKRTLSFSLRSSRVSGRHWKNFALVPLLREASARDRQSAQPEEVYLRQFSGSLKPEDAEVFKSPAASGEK
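Cells expressing TRPV1 were dye-loaded with Fluo-8 and read kinetically: 10 s baseline, 3 min after compound (agonist portion), then 2 min after EC20 capsaicin (allosteric enhancer portion). Calcium-bound dye fluorescence at 480/520 nm.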
Starred values were filed as active, the others as inactive; & = joins results of further samples; [ ] = dose if it differs, or a comment.

A first look, 2 compounds:
Results for CCCCn1c(N)c(N(CCOC)C(=O)c2ccc(-c3ccc([N+](=O)[O-])cc3)o2)c(=O)[nH]c1=O ?
Sfp PPTase inh: -15%; ClpP mod: -1.0%; gsp antag: -2%; TRPML1 inh: 8; gsp agonist: 11%[15.4 µM]; TRPV1 PAM: -1

How did Cc1ccc(CC2(c3ccccc3)NC(=O)NC2=O)cc1 (stereo not given) do in these assays?
gsp antag: 4%; TRPML1 inh: -11; gsp agonist: -33%[inhibitor]

All compounds of this part, repeating the preview:
Results for CCCCn1c(N)c(N(CCOC)C(=O)c2ccc(-c3ccc([N+](=O)[O-])cc3)o2)c(=O)[nH]c1=O ?
Sfp PPTase inh: -15%; ClpP mod: -1.0%; gsp antag: -2%; TRPML1 inh: 8; gsp agonist: 11%[15.4 µM]; TRPV1 PAM: -1

How did Cc1ccc(CC2(c3ccccc3)NC(=O)NC2=O)cc1 (stereo not given) do in these assays?
gsp antag: 4%; TRPML1 inh: -11; gsp agonist: -33%[inhibitor]

What do the screens show for `O=C(COC(=O)c1cc(=O)[nH]c(=O)[nH]1)Nc1cccc(Cl)c1`?
ClpP mod: -0.3%; gsp antag: 10%; TRPML1 inh: 2; gsp agonist: -19%

How did O=C(CNS(=O)(=O)c1ccccc1)N/N=C/c1ccccc1[N+](=O)[O-] do in these assays?
Sfp PPTase inh: -6%; gsp antag: 3%; TRPML1 inh: 7; gsp agonist: 26%; Menin MLL FP FL: 3.5; TRPV1 PAM: -10

Results for CSc1cccc(NC(=S)N(CCC(C)C)C(C)c2ccncc2)c1 (stereo not given) ?
Sfp PPTase inh: -23%; ClpP mod: 1.8%; gsp antag: -9%; TRPML1 inh: 1; gsp agonist: -40%[inhibitor]; Menin MLL FP FL: 4.1; TRPV1 PAM: 5

Results for CC(=O)c1ccc(OCCCC(=O)Nc2ccc(C)c(S(=O)(=O)N(C)C)c2)cc1 ?
Sfp PPTase inh: 9%; ClpP mod: 0.9%; gsp antag: -15%; TRPML1 inh: 61; gsp agonist: -29%; Menin MLL FP FL: 2.5; TRPV1 PAM: 5

Results for C=C(C)Cn1c(=S)[nH]c2ccccc2c1=O ?
Sfp PPTase inh: 1%; ClpP mod: -3.5%; gsp antag: 8%; TRPML1 inh: -4; gsp agonist: 2%; Menin MLL FP FL: 1.6; TRPV1 PAM: 2

Results for CC(C)Cn1c(N)c(C(=O)COC(=O)c2cccnc2Cl)c(=O)n(C)c1=O ?
Sfp PPTase inh: 21%; ClpP mod: -0.5%; gsp antag: -11%; TRPML1 inh: -6; gsp agonist: -5%; Menin MLL FP FL: -1.4; TRPV1 PAM: -4

What do the screens show for `Cc1c(C(=O)N2CCCCC2C)sc2ncnc(N3CCc4ccccc4C3)c12` (stereo not given)?
Sfp PPTase inh: -9%; gsp antag: 11µM*; TRPML1 inh: 58; gsp agonist: 6%[15.4 µM]; Menin MLL FP FL: 2.1; TRPV1 PAM: -18

Results for O=c1cc(-c2cccc(Br)c2)nc(-c2ccccc2F)o1 ?
Sfp PPTase inh: 19%; ClpP mod: inconclusive; gsp antag: 5%; TRPML1 inh: 17; gsp agonist: 17%; Menin MLL FP FL: 1.1; TRPV1 PAM: -6

Results for O=C(O)c1ccc(N/N=C/c2ccc(-c3ccc(Br)cc3)o2)cc1 ?
Sfp PPTase inh: 2%; gsp antag: -14%; TRPML1 inh: -7; gsp agonist: 4%[15.4 µM]; Menin MLL FP FL: 4.7; TRPV1 PAM: 7

How did O=c1ccc2ccc(OCc3nnc(-c4ccccc4Br)o3)cc2o1 do in these assays?
Sfp PPTase inh: 1%; ClpP mod: inconclusive; gsp antag: -6%; TRPML1 inh: -5; gsp agonist: -9%; Menin MLL FP FL: -0.6; TRPV1 PAM: -1

Results for Cc1ccc(S(=O)(=O)/N=C(/c2ccc(F)cc2)N(C)C)cc1 ?
Sfp PPTase inh: -3%; gsp antag: 2%; TRPML1 inh: 5; gsp agonist: 12%; Menin MLL FP FL: -13; TRPV1 PAM: 19

Results for CCCC[C@@H]1C=C(C(=O)O)[C@H](c2ccc(C#N)cc2)N1S(=O)(=O)c1ccc(C)cc1 ?
ClpP mod: 0.7%; gsp antag: -15%; TRPML1 inh: -20

Results for Cc1cc(C)nc(Nc2cccc3ccccc23)n1 ?
Sfp PPTase inh: -3%; ClpP mod: -0.8%; gsp antag: -1%; gsp agonist: -20%; Menin MLL FP FL: 5.0; TRPV1 PAM: 21

How did CCOc1ccccc1C(=O)NC1CCNCC1 do in these assays?
Sfp PPTase inh: -8%; ClpP mod: -4.3%; gsp antag: -15%; TRPML1 inh: 5; gsp agonist: 16%; Menin MLL FP FL: 0.2; TRPV1 PAM: 2

Results for Cn1c(COc2ccccc2)nnc1SCC(=O)Nc1nnc(C2CC2)s1 ?
gsp antag: 3%; TRPML1 inh: -2; gsp agonist: 0%[15.4 µM]

Results for Cc1ccc(S(=O)(=O)N2CCC(C(=O)Nc3ccc4c(c3)OCO4)CC2)cc1 ?
Sfp PPTase inh: 16%; ClpP mod: -1.0%; gsp antag: -9%; TRPML1 inh: -9; gsp agonist: inconclusive; Menin MLL FP FL: 4.9; TRPV1 PAM: 11

What do the screens show for `O=C(Nc1ccsc1C(=O)O)c1cccc(Oc2ccccc2)c1`?
Sfp PPTase inh: 19%; ClpP mod: -0.2%; gsp antag: inconclusive; TRPML1 inh: 53; gsp agonist: 22%[15.4 µM]; Menin MLL FP FL: 1.0; TRPV1 PAM: 14

How did CONC(=O)c1cc(OCC(F)(F)F)ccc1OCC(F)(F)F do in these assays?
Sfp PPTase inh: 6%; ClpP mod: -1.4%; gsp antag: 3%; TRPML1 inh: -2; gsp agonist: -4%; Menin MLL FP FL: -5.1; TRPV1 PAM: -7

What do the screens show for `CC1(C)Cc2c(C#N)c(OCC(=O)c3ccc(Cl)cc3)nc(-c3ccco3)c2CO1`?
Sfp PPTase inh: 22%; ClpP mod: -0.3%; gsp antag: 0%; TRPML1 inh: -17; gsp agonist: 0%; Menin MLL FP FL: -0.7; TRPV1 PAM: 10

How did CCOC(=O)NC(=O)/C(C#N)=C(/C)N(C)C do in these assays?
Sfp PPTase inh: 26%; gsp antag: 12%; TRPML1 inh: -9; gsp agonist: -38%[inhibitor]; Menin MLL FP FL: -2.5; TRPV1 PAM: -1

How did CCOC(=O)c1sc(NC(=O)C(CC)Sc2nnc3c4ccccc4n(CC)c3n2)nc1C (stereo not given) do in these assays?
Sfp PPTase inh: 0%; ClpP mod: 0.4%; gsp antag: -21%; gsp agonist: -25%; Menin MLL FP FL: -0.8; TRPV1 PAM: 5

How did CN(C(=O)COC(=O)c1cc([N+](=O)[O-])ccc1Sc1ccccc1)C1CCS(=O)(=O)C1 (stereo not given) do in these assays?
Sfp PPTase inh: -4%; gsp antag: -2%; TRPML1 inh: 3; gsp agonist: 18%[15.4 µM]; Menin MLL FP FL: -2.5; TRPV1 PAM: -23

How did Cc1ccc(NC(=O)CSc2nnc(-c3ccccn3)n2N)cc1F do in these assays?
Sfp PPTase inh: 2%; ClpP mod: -0.6%; gsp antag: 2%; TRPML1 inh: 13; gsp agonist: 7%[15.4 µM]; Menin MLL FP FL: -3.1; TRPV1 PAM: 5

How did COc1ccccc1-n1c(SCC(=O)OC(C)C)nc2cccnc21 do in these assays?
Sfp PPTase inh: 23%; ClpP mod: 0.7%; gsp antag: -10%; TRPML1 inh: -16; gsp agonist: -14%; Menin MLL FP FL: 1.5; TRPV1 PAM: -6

How did COc1ccc(CNC(=O)CN2C(=O)COc3ccc(S(=O)(=O)N4CCC(C)CC4)cc32)cc1 do in these assays?
Sfp PPTase inh: 19%; ClpP mod: -0.1%&-0.5%; gsp antag: -12%; TRPML1 inh: -1&-12; gsp agonist: -14%; Menin MLL FP FL: -1.7; TRPV1 PAM: -3

How did CC(C)CNC(=O)NC(=O)COC(=O)c1cccc(NS(=O)(=O)c2ccc(F)c(F)c2)c1 do in these assays?
Sfp PPTase inh: -1%; ClpP mod: 1.6%; gsp antag: inconclusive; TRPML1 inh: 13; gsp agonist: -1%; Menin MLL FP FL: 3.3; TRPV1 PAM: 2

How did CCOC(=O)NC(=O)COC(=O)CNC(=O)c1cccc(OC)c1 do in these assays?
Sfp PPTase inh: -3%; ClpP mod: 0.7%; gsp antag: -6%; TRPML1 inh: 31; gsp agonist: -5%[15.4 µM]; Menin MLL FP FL: -0.1; TRPV1 PAM: 0

How did CCN(c1ccccc1)S(=O)(=O)c1ccc(OC)c(NC(=O)C2CCC2)c1 do in these assays?
ClpP mod: inconclusive; gsp antag: -6%; TRPML1 inh: 25; gsp agonist: inconclusive

Results for c1ccc2nc(-c3ccc4c(c3)OCO4)ccc2c1 ?
Sfp PPTase inh: -20%; ClpP mod: 3.7%; gsp antag: -5%; TRPML1 inh: 6; gsp agonist: -70%[inhibitor]; Menin MLL FP FL: 2.0; TRPV1 PAM: -18

How did O=C(Nc1ccc(S(=O)(=O)N2CCc3ccccc32)cc1)c1ccc2c(c1)OCO2 do in these assays?
Sfp PPTase inh: 15%; ClpP mod: -1.0%; gsp antag: -11%; TRPML1 inh: 0; gsp agonist: -33%[inhibitor]; Menin MLL FP FL: -1.4; TRPV1 PAM: 3

Results for COc1ccc(-n2c(C)cc(C(=O)NC3CCCCC3)c2C)cc1 ?
Sfp PPTase inh: -6%; ClpP mod: -0.7%; gsp antag: -13%; TRPML1 inh: -1; gsp agonist: -36%[inhibitor]; Menin MLL FP FL: 0.6; TRPV1 PAM: -25

Results for CCCCC(C(=O)NC(C)c1ccccc1)C(=O)NC(C)c1ccccc1 (stereo not given) ?
Sfp PPTase inh: 12%; ClpP mod: inconclusive; gsp antag: 2%; TRPML1 inh: 40; gsp agonist: 23%[15.4 µM]; Menin MLL FP FL: -3.8; TRPV1 PAM: -9

What do the screens show for `O=C(Nc1ccc(CN2CCOCC2)cc1)c1ccc(Br)o1`?
Sfp PPTase inh: 5%; ClpP mod: -2.5%; gsp antag: 3%; TRPML1 inh: -20; gsp agonist: 7%; Menin MLL FP FL: -3.9; TRPV1 PAM: 6

The order is random; overall some 4.9% were active at least once.
